Vif A3G – inhibitors of Vif binding to APOBEC3G peptide, primary screen, biochemical, TR-FRET, GST-Vif 1-94, biotin-A3G peptide, dose response retest (AID 1117319); Virion infectivity factor (Human immunodeficiency virus type 1 group M subtype B (isolate …; TR-FRET GST-Vif / biotin-A3G peptide binding; higher % means a stronger effect; test concentration not given here; strong numbers were not always called active; inhibition, %, or IC50 in µM where a hit was titrated; 0.57% of 260,000 active;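 active = above the screen mean plus three standard deviations and confirmed in dose response; inconclusive = results disagree or hit not tested in dose response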;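 also: Vif residues 1-94 fused to GST binding biotinylated APOBEC3G peptide 110-148; 0% = full assay without inhibitor and 100% = GST in place of GST-Vif; retest series ran down from 100 µM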
LANA-H2A inh – blockers of LANA interaction with H2A/H2B – biochemical, FP readout, HTS, primary screen | inhibition, % (concentration not given with the values) | cell-free LANA-H2A/H2B peptide, fluorescence polarization | 0.6% of 320,000 active | Protein LANA1 (Human herpesvirus 8 type P (isolate GK18)), Q9QR71; in the data active = inhibition mostly above about 10%, no sharp cut-off; inactive = mostly below about 6.7%;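 also: stock transfer was 7.5 nL into about 10 µL; 0% = median of vehicle wells and 100% = median of positive control wells; one replicate is shown; the record names a cut of 25% in any replicate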
Target sequence (Q9QR71 whole entry, looked up): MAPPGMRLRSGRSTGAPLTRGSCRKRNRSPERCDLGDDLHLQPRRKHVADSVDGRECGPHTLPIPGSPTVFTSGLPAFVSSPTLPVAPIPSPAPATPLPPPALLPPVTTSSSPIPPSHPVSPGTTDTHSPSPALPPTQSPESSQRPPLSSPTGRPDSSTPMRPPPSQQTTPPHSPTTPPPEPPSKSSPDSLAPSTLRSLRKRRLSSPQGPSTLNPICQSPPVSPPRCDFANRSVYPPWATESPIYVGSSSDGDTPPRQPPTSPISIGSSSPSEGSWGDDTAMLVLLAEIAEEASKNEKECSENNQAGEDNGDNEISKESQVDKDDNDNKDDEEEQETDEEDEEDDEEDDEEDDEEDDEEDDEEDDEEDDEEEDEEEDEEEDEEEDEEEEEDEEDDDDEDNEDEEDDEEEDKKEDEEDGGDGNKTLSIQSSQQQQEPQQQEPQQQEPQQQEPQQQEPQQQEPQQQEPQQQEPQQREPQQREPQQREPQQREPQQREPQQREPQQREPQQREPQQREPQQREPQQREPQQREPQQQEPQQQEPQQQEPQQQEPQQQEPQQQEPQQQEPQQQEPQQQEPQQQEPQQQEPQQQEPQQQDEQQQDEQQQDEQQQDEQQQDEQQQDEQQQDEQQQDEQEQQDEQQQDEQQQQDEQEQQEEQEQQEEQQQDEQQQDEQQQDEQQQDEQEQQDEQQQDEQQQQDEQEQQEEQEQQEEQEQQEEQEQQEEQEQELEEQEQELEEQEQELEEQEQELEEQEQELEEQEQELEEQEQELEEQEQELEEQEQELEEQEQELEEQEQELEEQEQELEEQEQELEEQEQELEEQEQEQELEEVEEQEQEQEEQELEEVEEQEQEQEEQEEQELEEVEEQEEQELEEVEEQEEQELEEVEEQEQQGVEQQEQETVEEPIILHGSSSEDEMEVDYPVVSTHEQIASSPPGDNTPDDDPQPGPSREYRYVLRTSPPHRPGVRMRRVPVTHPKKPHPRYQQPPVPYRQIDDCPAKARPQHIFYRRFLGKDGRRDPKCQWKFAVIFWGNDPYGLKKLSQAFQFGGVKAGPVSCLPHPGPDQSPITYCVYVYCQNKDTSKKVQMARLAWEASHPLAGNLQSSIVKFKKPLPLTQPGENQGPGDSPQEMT
RanGTP-Impb inh – inhibitors of RanGTP-importin-beta interaction, primary screen, biochemical, FRET, CFP-Ran, YFP-importin-beta, homogeneous; Ran GTPase (GTP-bound) - importin-beta complex; inhibition, % (no concentration beside the values); cell-free CFP-Ran/YFP-importin-beta FRET ratio; 1.1% of 300,000 active; AID 2216, 2009;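 active = most replicates above 15%; inconclusive = exactly half above 15%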;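 also: 0% = DMSO wells and 100% = Ran loaded with GDP instead of GTP; wells of about 40 µL received 100 nL stock; the first replicate is given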
HNF4A DNA FP – change in binding of human HNF4A to DNA, primary screen, biochemical, fluorescence polarization, FITC-DNA; Hepatocyte nuclear factor 4-alpha (Homo sapiens), P41235; 1 h; activity change, % at 10 µM; 0.3% of 360,000 active; in the data active = activity change above about 30%, passing the limit was not always enough;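 also: controls were the assay level and a saturating level of protein; the project sought stronger binding though the title names inhibitors; some compounds called inactive have numbers as strong as hits; positive values seem to mean higher polarization but the record does not say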
Calb FLC – C. albicans growth inhibition with fluconazole, primary screen, CaCi-2 strain, Alamar Blue fluorescence; C. albicans CaCi-2 (fluconazole-resistant clinical isolate) + fluconazole, 48 h; growth inhibition, % (concentration not given with the values); 0.57% of 300,000 active; AID 1979, 2009;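 active = most replicates above 75%; inconclusive = exactly half above 75%; inactive = most below 75%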;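 also: all wells also contain fluconazole at 8 µg/ml as a sub-toxic cotreatment; 0% = median of DMSO wells and 100% = median of geldanamycin control wells; wells of about 8 µL received 7.5 nL stock; the first replicate is given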
ALR H2O2 inh – inhibitors of human ALR sulfhydryl oxidase, primary screen, biochemical, H2O2 detection, HRP-luminol luminescence, single point; FAD-linked sulfhydryl oxidase ALR (Homo sapiens), P55789; purified ALR, DTT oxidation; inhibition, % (concentration not given with the values); 3.8% of 290,000 active; AID 485317, 2010;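 active = mean and each replicate at 75% or more; inconclusive = only one of the two met; inactive = neither met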;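 also: stock transfer was 7.5 nL into about 7.5 µL; 0% = neutral wells and 100% = wells with inactivated enzyme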
B2AR ag – beta2AR agonists driving receptor internalization, primary screen, cell-based, FAP fluorogen, flow cytometry; response, % (no concentration beside the values); Am2.2-beta2AR cells; reference of the scale not given here; Beta-2 adrenergic receptor (Homo sapiens), P07550; 0.43% of 340,000 active;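 active = response above a set limit, near 3 SD of response in nonfluorescent compounds, cut at about 42% in these data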;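 also: stock transfer was 100 nL into about 11 µL; a reference agonist was the positive control; negative values mostly stem from fluorescent compounds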
The depositor's hits bear a star; ? = inconclusive; . = not tested or not shown; & = joins results of further samples. This is a random part of the collection. About 6.3% of those tested had a hit in this group.

SMILES	Vif A3G	LANA-H2A inh	RanGTP-Impb inh	HNF4A DNA FP	Calb FLC	ALR H2O2 inh	B2AR ag
Nc1nnc(SCC(=O)NNC(=O)c2ccc([N+](=O)[O-])cc2)s1	-18%	4.0	.	-0.8	.	-11	7
Cc1nn(Cc2c(F)c(F)c(F)c(F)c2F)c(C)c1NC(=O)c1ccc(COc2ccc(F)cc2)o1	0%	0.1	7.8	0.1	4	-10	-11
CC(C)(C)OC(=O)N[C@@H](Cc1ccccc1)c1nnc(SCC(=O)c2ccc(Cl)cc2)o1	-9%	-0.5	-2.7	-4.6	-18	-2	-9
COc1ccccc1CC(=O)Nc1cccc(C(=O)Nc2nccs2)c1	.	-1.5	?	1.6	0	-1	8
O/N=C\c1cccn1-c1nccs1	.	-4.0	?	10	-3	-25	-5
O=C(Oc1ccccc1N1C(=O)CCC1=O)c1ccco1	-4%	4.0	0.1	-2.6	1	4	4
CCCCCCCOC(=O)c1nc(Cl)c(Cl)c(N)c1Cl	-4%	-1.1	?	-1.2	7	8	-3
Cc1cc(C)nc(SCc2ccc3nonc3c2)n1	12%	2.0	3.3	-3.9	-19	-7	-13
C=CCn1c(COc2ccccc2)nnc1SCC(=O)NCC(=O)OCC	-4%	-0.5	2.2	-0.2	-2	-8	3
C/C(=N\NC(N)=O)C1CC(Cc2ccccc2)C(=O)O1 (stereo not given)	.	10	0.6	-2.9	-5	-23	10
CCOC(=O)C1(C#N)Cc2ccccc2C1	3%	.	.	-0.9	.	.	0
Cc1cccc(Cn2c(NCC(C)O)nc3c2c(=O)n(C)c(=O)n3C)c1 (stereo not given)	25%	-6.6	-2.8	-1.8	18	32	3
COc1ccc(C(=O)NCc2ccccn2)cc1	19%	1.6	-12	1.5	3	-12	3
O=C(NCCCN1CCOCC1)C1CCC(=O)N1CCc1ccccc1 (stereo not given)	-7%	-2.1	?	2.0	-4	-18	-16
CCCS(=O)(=O)N1CCCC(C(=O)NCC2CCCO2)C1 (stereo not given)	?	2.6	3.2	-0.6	-9	-1	-9
COC(=O)c1sccc1NC(=O)Nc1cc(C)ccc1OC	.	-9.7	2.8	-6.5	-17	7	2
CC(=O)C1=C(NC(=O)c2ccc(C(F)(F)F)cc2)C[C@@H]2[C@H]1C2(C)C	-8%	0.5	2.2	-1.9	-4	5	-3
Cc1nc(SCC(=O)Nc2nnc(C(C)C)s2)n[nH]1	.	0.6	-0.7	5.0	-1	-4	-2
COc1cc2c(cc1OC)CN(c1ccc([N+](=O)[O-])cc1C#N)CC2	2%	1.2	6.3	0.1	0	87*	-8
CC(=O)Nc1ccc(NC(=O)C2CCN(S(=O)(=O)c3ccc4c(c3)OCCO4)CC2)cc1	-11%	-2.7	.	-2.0	.	0	-2
O=S(=O)(c1cccs1)N1CCC(CO)(Cc2ccc(Cl)cc2)CC1	-6%	-2.3	-5.0	-2.9	9	-20	1
Nn1c(SCC(=O)NC2CCCCC2)nnc1C1CC1	-1%	2.1	-0.5	3.9	12	-3	-7
C=CCNc1nc(Nc2ccccc2F)nc(OCC)n1	-4%	16*	?	0.0	8	-5	-8
COc1cccc(C2=CC(c3cccc(OC)c3OC(F)F)n3nnnc3N2)c1 (stereo not given)	-1%	6.8	-8.3	-0.7	2	-1	-1
CC(=O)Oc1c(Cl)cc(N(C(C)=O)S(=O)(=O)c2ccccc2)c2ccccc12	.	9.8	2.2	-1.0	-2	.	8
S=C(NCC1CCCO1)Nc1cccc2ccccc12 (stereo not given)	2%	-14	-0.5	-5.5	5	-13	2
CC(C)COc1cccc(C(=O)NC(=S)NCc2cccnc2)c1	15%	0.6	-0.9	-0.4	2	0	-32
COc1ccc2c(CC#N)c[nH]c2c1	2%	-0.6	31*	0.2	0	6	6
COc1ccc(CC(NC(C)=O)C(=O)N2CCN(C(=O)N(C(C)C)C(C)C)CC2)cc1 (stereo not given)	-1%	1.0	0.3	3.2	2	.	21
Cc1ccc(C)c(NC(=O)CCC(=O)N/N=C/c2cccnc2)c1	-9%	1.1	.	4.8	-6	-7	-3
Cc1ccccc1NC(=O)COc1ccc(S(=O)(=O)N2CCCC2)cc1C	-5%	0.1	-0.4	4.0	-21	.	-1
Cc1ccc2[nH]c(=O)c(CN(Cc3nnnn3C3CCCC3)C3CCCCC3)cc2c1	19%	6.9	-7.1	-0.5	2	-9	16
CC(C)OCCCNC(=O)CN1C(=O)CC(C)(C)S(=O)(=O)c2ccccc21	-2%	13	1.7	4.6	28	.	6
O=c1c2[nH]c3ccccc3c2ncn1Cc1ccncc1	2%	0.0	2.0	0.4	-7	-20	-7
COc1cccc(OC)c1C(=O)Nc1ccc(C)cc1C(=O)c1ccccc1	7%	2.8	0.5	0.2	-9	5	-1
CCOC(=O)c1c(/N=C/c2ccc(O)cc2O)sc2c1CCC2	24%	1.9	7.2	.	25	56	.
Brc1cc2c(cc1CSc1ncccn1)OCO2	2%	4.5	-0.9	-0.1	2	-3	12
O=C(c1n[nH]c(=O)c2ccccc12)N1CCN(S(=O)(=O)c2ccccc2Cl)CC1	-20%	-0.4	.	-0.8	.	3	5
CCOC(=O)C1CCN(C(=O)COc2ccc(Cl)cc2)CC1	0%	11	-0.7	1.0	-2	-16	5
CN(C)C1(CNC(=O)C2CCN(S(=O)(=O)c3cc(Cl)ccc3Cl)CC2)CCCCC1	.	2.5	1.3	2.8	-2	-2	-3
C[C@H]1CN([C@@H](C)CO)C(=O)c2cc(NC(=O)Nc3cccc4ccccc34)ccc2O[C@@H]1CN(C)Cc1ccc(-c2ccccc2)cc1	.	1.4	.	3.9	.	1	5
CN(CCc1ccccn1)C(=O)CCC1CCCN(C(=O)CCOc2ccccc2)C1 (stereo not given)	.	0.7	-2.8	1.5	-2	-6	8
Cc1cc(C)c(OCCCCN2CCC(C)CC2)c(Br)c1	5%	-2.2	0.0	-1.5	-21	16	7
Cc1ccc(-n2nnnc2-c2cnc3cc4c(cc3c2C)OCO4)cc1	-11%	6.2	0.5	0.2	5	-6	6
CCCCOC(=O)Cn1c(=O)c2c(nc3n2CCCCN3c2ccc(C)cc2)n(C)c1=O	7%	2.4	-2.2	-1.0	-1	-14	0
Cc1nn(-c2cccc(C(F)(F)F)c2)c(Cl)c1/C=N/n1cnnc1	1%	0.3	?	4.6	-6	-4	-10
Cc1cc(C(=O)Cn2cc(C(F)(F)F)ccc2=O)c(C)n1CC1CCCO1 (stereo not given)	-3%	-3.9	.	0.6	.	-4	-4
Cc1nc(CNC(=O)C2CCC(=O)N(Cc3cccc(F)c3)C2)sc1C (stereo not given)	1%	-1.2	2.7	1.4	8	14	2
CC1(C)Cc2ccccc2C(=O)N1	-1%	-0.1	-1.0	-0.6	0	-3	-1
Cc1cnc(NC(=O)c2ccc3ncsc3c2)s1	-11%	.	.	1.2	.	.	12
FC(F)(F)c1nc2ccccc2c2nc3ccccc3n12	-13%	-4.6	2.8	-1.7	9	-7	-8
CCN1CCN(C(=O)CN(c2ccccc2C)S(C)(=O)=O)CC1	-1%	3.4	0.5	7.0	3	-7	1
O=C(Oc1ccc(Br)cc1)C1CC(=O)N(c2ccc(F)cc2)C1 (stereo not given)	0%	-5.1	5.1	-0.1	5	61	6
Cc1ccc(NCc2nnc(SCC(=O)O)n2-c2ccc(C)cc2)cc1	-4%	1.8	-0.6	2.8	-20	71	0
Cc1ccc(C2=NOC3(CC(=O)N(c4ccc(C)cc4)C3=O)C2)cc1 (stereo not given)	24%	3.6	2.8	0.3	-30	-14	5
O=C(CN1C(=O)NC2(CCCC2)C1=O)OCc1ccc(Br)cc1	0%	-0.2	9.9	0.7	-13	0	-2
CC(C)N(CCO)C(=O)CCc1nnc(Cc2cccc(C(F)(F)F)c2)o1	.	6.8	0.4	5.4	-10	-4	-4
Cc1ccc(NC(=O)CSc2nc(N)c3c4c(sc3n2)CSC(C)(C)C4)cc1	11%	-0.5	-0.4	1.1	8	25	-7
CCCCCCCC1CC(=O)C=C(C)C1C(=O)OCC (stereo not given)	-10%	-4.5	1.3	-1.1	-4	1	-10
Cc1ccc(C2C(C#N)=C(N)Oc3c2sc2ccccc32)o1 (stereo not given)	32%	0.3	.	.	18	-21	.

RanGTP-Impb inh, what is marked active above.
canonical_smiles | Vif A3G | LANA-H2A inh | RanGTP-Impb inh | ALR H2O2 inh | B2AR ag
COc1ccc2c(CC#N)c[nH]c2c1 | 2% | -0.6 | 31* | 6 | 6

Continued:
SMILES	Vif A3G	LANA-H2A inh	RanGTP-Impb inh	HNF4A DNA FP	Calb FLC	ALR H2O2 inh	B2AR ag
CC(=O)c1ccc(-c2ccc(C(=O)N(C)Cc3nc4ccccc4c(=O)[nH]3)o2)cc1	?	-1.9	.	1.8	.	-5	5
COCCSc1nnc(NC(=O)Cc2ccc(OC)cc2)s1	0%	0.0	-3.6	-4.6	-3	2	-4
Nc1nc(NC(=O)/C=C/c2ccccc2)nn1-c1ccccc1	1%	3.0	2.5	-4.5	-21	-2	1
COC(=O)c1cc(COc2ccc3ccc(=O)oc3c2)c(C)o1	-2%	-5.8	-3.0	0.2	3	-2	9
CCOC(=O)c1nnn(-c2nonc2N)c1CNc1ccc(C)c(Br)c1	4%&3%	-5.2	-2.1	-0.9	6	9	18
N#Cc1ccc(NC(=O)COC(=O)c2ccc(F)c(S(=O)(=O)N3CCOCC3)c2)cc1	.	2.5	.	1.9	.	.	-1
CCC(=O)Nc1ccc2nn(-c3ccc(F)cc3)nc2c1	-1%	-3.0	3.3	1.0	-12	0	-10
CC(=O)n1cc([C@H]2C=C(C(=O)Nc3ccccc3)O[C@@H](OCc3ccc(CO)cc3)C2)c2ccccc21	9%	-2.2	11	3.4	-1	-2	15
Cc1ccc2c(c1)oc(=O)n2CC(=O)c1ccccc1	24%	2.4	-1.8	-4.2	2	-4	-1
COc1cc(C(=O)NC2CCN(CC(=O)Nc3cccc(C)c3C)CC2)cc(OC)c1OC	13%	2.2	0.2	-0.5	4	-2	-2
O=C(Nc1cccc(S(=O)(=O)N2CCCCC2)c1)c1ccc([N+](=O)[O-])o1	-15%	0.9	-0.5	-0.8	?	-29	3
Cc1cccc(Cc2c(C)nc3nc(SCC(=O)O)nn3c2C)c1	.	0.1	3.1	-4.7	-7	1	3
COC(=O)c1c(N2C(=O)[C@H]3[C@@H](C2=O)[C@]2(C(=O)Nc4ccc(C)cc42)N2CCC[C@@H]32)sc(C)c1C	1%	-1.9	0.1	.	-8	-4	.
O=c1[nH]c(=S)n(-c2cccc(C(F)(F)F)c2)c(O)c1C=NCCN1CCNCC1	.	.	-4.3	3.0	-7	.	4
Cc1cccc2c1cnn2C(=O)CCC(=O)NCC(C)c1ccccc1 (stereo not given)	.	-2.2	3.7	-1.8	-1	-12	5
COc1cc(OC)cc(-c2cc3cc(F)ccc3cn2)c1	.	1.1	.	-1.0	.	-8	-17
CCCCCCC(=O)N/N=C/Cc1ccccc1	-8%	5.8	0.1	4.1	8	-13	-4
CCOC(=O)NC1(Nc2cccc(Cl)c2)Oc2ccccc2O1	?	2.2	.	-2.3	.	.	-7
CCCNC(=O)c1cc2c3ccccc3n(C)c2s1	6%	-2.2	3.8	4.6	5	99*	-2
O=C(COC(=O)c1c[nH]c(=O)[nH]c1=O)Nc1ccccc1Br	-9%	-1.0	8.4	-4.4	9	.	6
